rRNA inh HTS: selective bacterial rRNA inhibition in E. coli. E. coli WT GFP vs humanized-ribosome RFP mutants, fluorescence, 24 h; stronger effect = lower value; DMSO median 0, no signal -100. 350,000 compounds, 1.6% hits. GFP signal change (wild-type ribosome), % (concentration not given with the values);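 active means significant combined selectivity score with lowered wild-type GFP, culture density cut under 30%, mutant RFP and density less affected; inactive means any of these conditions unmet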; further: one replicate is shown; some compounds called inactive have numbers as strong as hits
Bfl-1 A1 inh: inhibitors of the anti-apoptotic protein A1, read as caspase activation. MEF A1-2A-BIM cells, Caspase-Glo 3/7 luminescence, 3 h; percent of clofoctol response, vehicle zero. caspase activation, % (concentration not given with the values). 330,000 compounds, 0.066% hits. AID 2462;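 active means over half of replicate activation scores above 10%, or exactly half above 10 with the replicate mean above 10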;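 further: wells of about 30 µL received 50 nL stock; many hits fall short of the cut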
UCH37 DUB inh: blocks the human deubiquitinase UCH37 | inhibition, % (no concentration beside the values) | 330,000 compounds, 0.33% hits | purified proteasome/UCH37, Ub-AMC cleavage fluorescence | Q9Y5K5 | AID 588478;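 active means mean of two replicates above 20%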;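 further: 0% = compound-free wells with enzyme and 100% = wells lacking proteasome; stock transfer was 100 nL into about 20 µL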
Target sequence (Q9Y5K5 whole entry, looked up): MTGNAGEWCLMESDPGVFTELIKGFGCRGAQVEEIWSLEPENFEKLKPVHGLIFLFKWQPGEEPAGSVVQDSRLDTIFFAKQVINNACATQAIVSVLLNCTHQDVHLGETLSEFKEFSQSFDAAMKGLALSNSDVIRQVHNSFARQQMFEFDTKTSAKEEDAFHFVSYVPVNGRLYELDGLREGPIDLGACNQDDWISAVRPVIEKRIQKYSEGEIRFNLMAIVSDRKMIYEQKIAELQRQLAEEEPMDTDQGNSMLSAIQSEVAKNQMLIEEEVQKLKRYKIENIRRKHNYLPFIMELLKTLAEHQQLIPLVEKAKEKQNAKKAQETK
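Schedule: 30 min plus 25 min, room temperature / Material: human UCH37 within purified proteasomes / Technique: AMC fluorescence intensity at 355/460 nm / Buffer or medium: pH 7.4 Tris-HCl (50 mM) with ovalbumin, ATP-MgCl2, DTT / Controls: wells without proteasome as full block, compound-free enzyme plus substrate as uninhibited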
FGF22 binding: shifts melting point of recombinant human FGF22. AID 651658. Q9HCT0. recombinant FGF22 thermal shift, SYPRO orange fluorescence; percent of sucrose octasulfate shift, DMSO zero. calls only at 9.99 µM. 340,000 compounds, 1.5% hits;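 active means melting point raised past a set limit in the mean and every replicate; three in four hits are not shown here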
Target sequence (Q9HCT0 whole entry, looked up): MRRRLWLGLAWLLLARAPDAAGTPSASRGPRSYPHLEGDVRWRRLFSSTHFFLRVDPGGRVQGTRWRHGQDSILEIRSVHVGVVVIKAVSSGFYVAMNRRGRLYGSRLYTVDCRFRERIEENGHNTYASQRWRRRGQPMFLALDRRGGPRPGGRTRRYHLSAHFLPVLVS
MLL AF4-AF9 inh: MLL-AF4/AF9 protein interaction inhibition | P42568 | AlphaScreen, biotin-AF4 peptide binding to FLAG-AF9 | inhibition, % at 10 µM | 350,000 compounds, 0.47% hits;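 active means every replicate reaching a set inhibition limit, whatever the replicate mean, cut at about 25% in these data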;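 further: 0% = plate neutral control median and 100% = total signal loss; the record names both 10 and 1 µM as test concentration; the first replicate is given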
Target sequence (P42568 whole entry, looked up): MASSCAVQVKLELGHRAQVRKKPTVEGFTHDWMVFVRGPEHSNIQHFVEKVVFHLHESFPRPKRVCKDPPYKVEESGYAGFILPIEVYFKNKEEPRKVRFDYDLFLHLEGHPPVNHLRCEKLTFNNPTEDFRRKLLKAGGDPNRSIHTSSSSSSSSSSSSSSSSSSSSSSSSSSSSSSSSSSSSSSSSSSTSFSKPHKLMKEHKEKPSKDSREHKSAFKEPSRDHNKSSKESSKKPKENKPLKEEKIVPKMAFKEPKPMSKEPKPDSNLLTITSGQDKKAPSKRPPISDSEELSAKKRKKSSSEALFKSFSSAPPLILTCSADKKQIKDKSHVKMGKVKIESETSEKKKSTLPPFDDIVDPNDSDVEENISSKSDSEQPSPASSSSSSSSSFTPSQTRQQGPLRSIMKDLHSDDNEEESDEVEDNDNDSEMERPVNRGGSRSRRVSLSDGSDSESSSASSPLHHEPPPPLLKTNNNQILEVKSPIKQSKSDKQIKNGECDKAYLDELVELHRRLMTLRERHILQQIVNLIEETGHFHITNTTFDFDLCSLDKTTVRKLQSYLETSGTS
Ecoli growth: E. coli growth inhibition | Escherichia coli growth, OD600, 23 h; stronger effect = lower value | OD600 absorbance (test concentration not listed) | 330,000 compounds, 0.21% hits;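 active means OD600 absorbance below the run mean of sample wells minus 3.6 SD, in any replicate, cut at about 0.56 in these data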;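 further: stock transfer was 300 nL into about 60 µL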
Beta cell apopt: beta cell apoptosis inhibition; INS-1E cytokine-induced death, ATP luminescence, 48 h; percent of positive-control rescue, neutral wells zero; protection from apoptosis, % (no concentration beside the values); 300,000 compounds, 0.8% hits; AID 435005;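 active means all replicates at 75% or more, or half of them and the mean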;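 further: 0% = cytokine-treated negative control wells and 100% = positive control rescue; higher means more ATP so stronger rescue from cytokine killing; wells of about 40 µL received 100 nL stock; the first replicate is given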
T cruzi repl: T. cruzi replication inhibition | T. cruzi beta-gal in NIH3T3, luminescence, 90 h | 300,000 compounds, 1.4% hits | inhibition, % (concentration not given with the values);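 active means mean inhibition across valid replicates above about 55%, limit read from the data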;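 further: signal also drops with host cell toxicity which is not excluded here; 0% = plate median of DMSO wells and 100% = zero luminescence signal; higher percent means less beta-gal luminescence so fewer parasites; stock transfer was 50 nL into about 50 µL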
rRNA inh HTS OD600: second read-out of rRNA inh HTS, no call of its own (marks repeat the call); OD600 change, %; measured here: OD600 growth;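 optical density of the mix in the first replicate; 0 = DMSO median and -100 = no signal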
rRNA inh HTS RFP: second read-out of rRNA inh HTS, no call of its own (marks repeat the call); RFP signal change, %; measured here: RFP humanized mutant strains;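 first replicate; 0 = DMSO median and -100 = no signal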
Active calls of the source: *; i = inactive; · = no result given.

canonical_smiles	rRNA inh HTS	rRNA inh HTS OD600	rRNA inh HTS RFP	Bfl-1 A1 inh	UCH37 DUB inh	FGF22 binding	MLL AF4-AF9 inh	Ecoli growth	Beta cell apopt	T cruzi repl
COc1ccc(C2=NN(c3ccccc3)C(c3ccc(OC)c(OC)c3)C2)cc1 (centres undefined)	5.1	-0.2	31.7	0.1	i	i	1.2	0.729	·	25.5
CCCCCCc1c(O)nc(SCC(=O)O)[nH]c1=O	4.8	11.9	-1.9	0.2	5.6	i	2.1	0.706	-5.0	-16.3
Cc1ccc(S(=O)(=O)NCc2ccccn2)cc1C	0.7	2.4	-0.1	0.5	1.9	i	-5.5	0.633	·	-6.9
CC(C)Cn1c(SCC(=O)N2CCc3ccccc3C2)nc(O)cc1=O	5.8	9.4	3.3	1.5	7.1	i	-1.9	0.693	-4.5	·
CC(C)(O)c1cc2ccc(C#CCCN3C(=O)c4ccccc4C3=O)cc2c(=O)o1	6.9	7.3	-4.1	-1.6	-1.0	i	-0.3	0.708	0.1	·
CSCCC(NC(=O)c1cc(S(=O)(=O)N2CCOCC2)ccc1C)c1nc2ccccc2[nH]1 (centres undefined)	9.6	8.8	1.5	·	1.1	i	6.6	0.679	·	·
CCc1ccc(OCC(=O)N/N=C\c2ccco2)c([N+](=O)[O-])c1	·	·	·	-1.3	·	i	8.3	·	-5.5	-1.6
O=C(Nn1cnnc1)c1ccccc1CCc1ccccc1	·	·	·	0.1	6.1	·	·	0.693	0.6	-3.9
CC(=O)Nc1ccc(NC(=O)C2CCN(c3ccc(C(F)(F)F)cn3)CC2)cc1	6.9	0.4	-2.8	0.8	5.0	·	-0.5	0.749	0.6	-11.0
Cc1ccc2c(c1)N(C(=O)CCC(=O)N1CCN(c3ccccc3)CC1)CCO2	-3.6	3.0	8.1	-0.3	0.5	i	-5.8	0.64	3.8	-8.1

(next part)
canonical_smiles	rRNA inh HTS	rRNA inh HTS OD600	rRNA inh HTS RFP	Bfl-1 A1 inh	UCH37 DUB inh	FGF22 binding	MLL AF4-AF9 inh	Ecoli growth	Beta cell apopt	T cruzi repl
CCN(CC(=O)Nc1c(F)cccc1F)C(=O)CN1C(=O)C2CCCCC2C1=O (centres undefined)	7.0	17.9	-0.1	1.6	-2.8	i	-3.4	0.67	5.0	·
c1ccc(CN2c3ccccc3-c3nc4ccccc4n3C2c2ccccn2)cc1 (centres undefined)	·	·	·	·	-342.9	·	·	0.761	-4.1	24.8
C=CCn1c(-c2ccco2)n[nH]c1=S	·	·	·	0.6	2.4	·	·	0.723	3.8	-4.5
COC(=O)c1cc(Br)c(=O)n(CCc2ccc(O)cc2)c1	·	·	·	-0.9	-3.4	·	-1.6	0.733	3.3	-1.2
COc1ccc(N2CCN(CCNC(=O)c3ccc4nc5ccccc5c(=O)n4c3)CC2)cc1	-12.2	-5.4	-3.2	·	-176.0	i	-8.7	0.66	·	-5.2
OC1(c2ccc(Cl)cc2)CCN(Cc2cn[nH]c2-c2ccccc2)CC1	-7.9	-10.1	0.8	0.3	3.6	i	2.7	0.697	·	-6.2
CCOC(=O)Cc1cc(=O)n(-c2nc3ccccc3s2)[nH]1	·	·	·	0.0	0.1	·	·	0.657	-4.2	0.3
O=c1cc(N2CCN(c3ccc(F)cc3)CC2)[nH]c(=O)n1C1CCCCC1	·	·	·	0.3	0.4	·	·	0.725	2.3	-13.6
CCOC(=O)N1CCN(C(=O)CNCc2cccs2)CC1	·	·	·	0.2	2.8	·	·	0.739	-2.1	-1.6
Cn1c(=O)c2nc(-c3ccccc3)oc2c2ccccc21	·	·	·	-0.2	-127.0	·	·	0.707	4.7	12.1

(cont.)
canonical_smiles	rRNA inh HTS	rRNA inh HTS OD600	rRNA inh HTS RFP	Bfl-1 A1 inh	UCH37 DUB inh	FGF22 binding	MLL AF4-AF9 inh	Ecoli growth	Beta cell apopt	T cruzi repl
O=C(COC(=O)c1cc(Br)ccc1O)NNC(=O)c1ccc(Cl)cc1	-1.2	-0.5	3.7	0.2	-3.9	i	-0.9	0.707	0.7	-13.1
NNc1ccc2nnc(C(F)(F)C(F)(F)C(F)(F)F)n2n1	-8.0	3.0	-1.7	-0.2	1.4	i	1.3	0.713	-17.1	-10.1
CC(C)CCN1CCN=C1N(C)C	8.2	9.0	7.5	0.0	-2.7	i	-2.5	0.694	-3.6	·
O=C(CNC(=O)c1cccs1)OCC(=O)c1cccs1	·	·	·	0.6	-1.0	·	·	0.676	-9.8	4.4
COc1ccc(-c2csc(NC(CO)c3nc4ccccc4n3CCCO)n2)cc1 (centres undefined)	3.4	1.6	-4.0	0.7	-0.6	i	·	0.653	-13.8	-28.1
OC(CN1CCCCC1)Cn1c2ccccc2c2ccccc21 (centres undefined)	15.9	11.8	7.5	0.5	6.0	i	3.1	0.648	·	15.0
CCc1nc(OCCN(CC)CC)c2oc3ccccc3c2n1	·	·	·	-1.2	2.7	·	·	0.715	-1.6	3.8
CC1CCCC(C)N1c1nnc(NC(=O)Cn2c(=O)oc3ccccc32)s1 (centres undefined)	3.4	2.2	6.4	0.3	2.6	i	-0.6	0.74	-3.6	2.9
NS(=O)(=O)c1ccc(CCNc2ncnc3sccc23)cc1	·	·	·	0.1	-1.8	·	·	0.676	42.6	9.8
CC(C)C(=O)Nc1ccc(C(=O)CN2C(=O)NC3(CCOc4ccccc43)C2=O)cc1 (centres undefined)	-6.4	2.1	2.1	-0.8	1.5	i	-2.1	0.692	3.3	·

The list goes on.
canonical_smiles	rRNA inh HTS	rRNA inh HTS OD600	rRNA inh HTS RFP	Bfl-1 A1 inh	UCH37 DUB inh	FGF22 binding	MLL AF4-AF9 inh	Ecoli growth	Beta cell apopt	T cruzi repl
CC1(C)CC[C@]2(C(=O)O)[C@H](O)C[C@]3(C)C(=CCC4[C@@]5(C)C[C@H](O)[C@H](O)[C@@](C)(CO)C5CC[C@]43C)[C@@H]2C1 (some centres undefined)	·	·	·	0.2	2.6	i	0.1	0.717	-3.1	-4.1
O=C(c1ccc(Cl)cc1)N1CCN(c2ccc(F)cc2)CC1	·	·	·	-0.2	2.3	·	·	0.621	-9.4	-30.0
CC(C)[C@H](NS(=O)(=O)c1ccccc1)C(=O)Nc1nccs1	13.6	12.6	1.6	1.8	-1.8	i	-1.5	0.651	-4.7	·
Cc1c(NC(=O)COc2cccc(Br)c2)c(=O)n(-c2ccccc2)n1C	·	·	·	0.3	1.9	i	0.8	0.62	3.1	-0.5
CCCc1cc(=O)[nH]c(SCC(=O)N(Cc2ccccc2)C(C)C)n1	-5.1	-4.7	-4.7	-1.7	0.8	·	·	0.728	-21.6	0.0
OCCNc1c2ccccc2nc2c(F)c(F)c(F)c(F)c12	·	·	·	0.3	-11.3	·	·	0.678	2.3	-8.0
COc1ccc(S(=O)(=O)NCCOc2ccc(Cl)cc2)cc1	-24.0	-58.3	-2.4	0.3	1.4	i	-3.2	0.709	-1.9	·
C/C=C/c1ccc(OCC(=O)O)c(OC)c1	4.5	9.8	-6.0	0.0	2.2	i	2.4	0.679	-3.8	-15.9
COc1ccc(CNC(=O)CCNS(=O)(=O)c2ccc3c(c2)oc(=O)n3C)cc1	·	·	·	0.3	-1.7	·	·	0.699	-4.6	0.4
O=C(CN1C(=O)NC2(CCCCCCC2)C1=O)NCc1ccc2c(c1)OCO2	·	·	·	1.9	0.1	·	·	0.739	-5.9	-9.6

Other results
canonical_smiles	rRNA inh HTS	rRNA inh HTS OD600	rRNA inh HTS RFP	Bfl-1 A1 inh	UCH37 DUB inh	FGF22 binding	MLL AF4-AF9 inh	Ecoli growth	Beta cell apopt	T cruzi repl
O=[N+]([O-])c1ccc(Oc2cccc3cccnc23)c([N+](=O)[O-])c1	·	·	·	1.0	1.7	·	·	0.708	45.6	29.3
CCSc1ccc(-c2nn(-c3ccccc3)cc2/C=C(/C#N)C(=O)NC)cc1	·	·	·	8.3*	i	·	·	0.713	-1.8	·
O=C1Cn2c(nc3ccccc32)N1c1cccc(C(F)(F)F)c1	·	·	·	-2.1	3.8	·	·	0.731	-2.5	-18.2
O=C(Cc1cccs1)NCCc1csc(-c2ccccc2)n1	-6.3	-4.8	-3.0	0.3	5.8	i	1.1	0.758	-4.7	4.0
CCN1C(=O)/C(=C/c2nc3ccccc3c(=O)[nH]2)c2ccccc21	·	·	·	-0.5	4.4	i	6.2	0.714	-4.0	·
COc1cc(/C=C/C(=O)O)ccc1OS(=O)(=O)c1c(C)c(C)cc(C)c1C	0.3	14.3	-0.1	1.0	3.0	i	-0.4	0.721	-1.0	·
Cc1ccc(CN(C(=O)c2ccc(Cl)c([N+](=O)[O-])c2)C2CCS(=O)(=O)C2)o1 (centres undefined)	16.1	13.8	2.7	2.4	2.8	i	3.0	0.694	-3.2	45.8
CCOC(=O)C1CCCN(C(=O)c2cc3cc(F)ccc3[nH]2)C1 (centres undefined)	1.6	-0.7	1.3	-0.4	5.1	i	-7.1	0.677	-1.6	23.9
Cc1ccc(C(=O)COC(=O)c2cc(Cl)nc3ccccc23)cc1C	·	·	·	0.2	0.9	·	·	0.732	-3.2	-19.5
COc1cc(N)c(C(=O)c2nccc3cc(OC)c(OC)cc23)cc1OC	6.0	-0.1	-2.0	-0.3	5.4	i	6.6	0.621	-7.1	0.1

Other structures follow:
canonical_smiles	rRNA inh HTS	rRNA inh HTS OD600	rRNA inh HTS RFP	Bfl-1 A1 inh	UCH37 DUB inh	FGF22 binding	MLL AF4-AF9 inh	Ecoli growth	Beta cell apopt	T cruzi repl
CC1(c2ccc(OC(F)F)cc2)NC(=O)N(CC(=O)Nc2cccc(F)c2)C1=O (centres undefined)	-3.3	-13.6	2.2	0.5	1.2	i	-8.9	0.638	0.7	0.4
CCN(CC)C(=O)C(=O)Nc1cc(C(F)(F)F)ccc1Cl	·	·	·	-0.1	0.8	·	·	0.721	-4.1	-9.9
O=C(c1ccc(-c2ccccc2Cl)o1)N1CCCCCCC1	-57.2	-76.2	-17.9	·	0.0	i	1.1	0.671	·	·
COc1cc(OC)cc(-c2nnc(SCc3cccnc3)o2)c1	-5.3	-8.9	2.0	-1.8	4.2	i	-40.6	0.661	-4.4	36.4
COc1ccc(NC(=O)C(=O)NNC(=O)COc2ccc(Cl)cc2)c(OC)c1	7.0	18.9	-1.3	-0.3	2.4	i	-1.7	0.682	-3.6	6.3
Cc1ccc(NC(=S)NC(NC(=O)c2ccccc2C)C(Cl)(Cl)Cl)c(C)c1 (centres undefined)	·	·	·	1.2	0.5	·	·	0.717	4.5	13.1
COc1ccc(CNc2nc3nc(C)c(Cl)c(C)n3n2)cc1	9.1	9.1	-0.6	-0.1	-4.3	i	-1.8	0.683	-3.4	-3.1
O=C(CN1CCCCCC1)Nc1c(Cl)cc(Cl)cc1Cl	4.7	9.0	1.2	1.2	2.5	i	0.4	0.625	·	20.5
COc1cccc(Oc2ccc(C(F)(F)F)cc2N)c1	·	·	·	-1.0	1.4	·	·	0.674	-0.7	5.2
C=C(C)c1cccc(C(C)(C)NC(=O)Nc2ccccc2OCC)c1	·	·	·	0.2	-0.5	·	·	0.769	-4.9	8.1
Cc1cccc(NC(=O)CN2C(=O)NC3(CCCCCCC3)C2=O)c1C	-11.8	-20.4	-3.0	-0.3	-0.4	i	3.6	0.693	-3.8	·
Cc1cc(C)cc(SCc2noc(C(=O)NCCC(C)C)c2C(=O)NCCC(C)C)c1	0.4	-7.3	0.5	1.1	0.6	i	-3.4	0.705	-4.8	-3.0

Source: PubChem (several laboratories)

Only part of the results is shown, so the mix of outcomes need not match the whole.
